UUG fidelity: alters start codon recognition fidelity in yeast; activity score, % at 18.7 µM; 0.13% of 350,000 active; S. cerevisiae UUG-firefly luciferase reporter, luminescence/redox ratio;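 active means replicate mean at a twofold rise or more, about +100% in these data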;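 further: firefly luciferase made from a UUG start codon reports start codon fidelity; reporter light over untreated wells divided by growth signal over untreated wells; some hits fall short of that in this replicate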
MT1-MMP act inh: MT1-MMP (human) activation inhibition | P50281 | HT1080 RFP-PRO-GFP cells, GFP/RFP ratio fluorescence, overnight; percent of plate control window, DMSO zero | GFP/RFP ratio change, % at 20 µM | 0.061% of 360,000 active;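 active means GFP/RFP ratio change of at least 30% with cell ATP level not reduced by more than half and red fluorescence within 50% of control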; further: strong numbers were not always called active
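Assay system: HT1080 RFP-PRO-GFP cells | Dosing: 20 µM single dose, 1% DMSO | Incubation: Cells overnight before dosing, compound overnight, 37 °C, 5% CO2 | Evaluation: GFP/RFP fluorescence ratio | Control set: DMSO-only wells and HT1080 RFP-L50D-GFP cell wells as references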
eIF4H inh: inhibitors of RNA binding by human eIF4H. eIF4H fluorescence polarization binding assay. inhibition, % at 35 µM. 0.94% of 290,000 active. AID 2012;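 active means 50% or more with normal probe brightness, or confirmed in later tests; inconclusive means above 50% with abnormal brightness, or retests that disagree; inactive means below 50% or failed in later tests; about a fifth of its hits are not listed in these tables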;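 further: calls also rest on retests at 20 µM and on dose response follow-up; 0% = protein and probe with vehicle and 100% = probe without protein; strong numbers were not always called active; many hits fall short of the cut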
PABP FP inh: PABP-poly(A) binding inhibition; 1% of 290,000 active; P11940; PABP-poly(A) RNA binding, fluorescence polarization; inhibition, % at 35 µM;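 active means 50% or more with normal probe brightness, or confirmed in later tests; inconclusive means above 50% with abnormal brightness, or retests that disagree; inactive means below 50% or failed in later tests; about a fifth of its hits are not listed in these tables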;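 further: calls also rest on retests at 20 µM and on dose response follow-up; controls were probe without protein and protein plus probe with vehicle; some compounds called inactive have numbers as strong as hits; many hits fall short of the cut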
Rce1 inhib: blocks yeast Ras-converting enzyme; yeast membranes, quenched prenylated peptide cleavage fluorescence; 0.27% of 290,000 active; AID 2563; calls only;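 active means fall in fluorescence gain of 50% or more versus controls, with final raw signal at or below 3038400; inconclusive means same 50% fall but final raw signal above 3038400; inactive means fall in fluorescence gain under 50%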;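 further: plate controls were neutral control wells for no effect and wells lacking membranes for full effect; tested at 10 µM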
Target sequence (Q03530 whole entry, looked up): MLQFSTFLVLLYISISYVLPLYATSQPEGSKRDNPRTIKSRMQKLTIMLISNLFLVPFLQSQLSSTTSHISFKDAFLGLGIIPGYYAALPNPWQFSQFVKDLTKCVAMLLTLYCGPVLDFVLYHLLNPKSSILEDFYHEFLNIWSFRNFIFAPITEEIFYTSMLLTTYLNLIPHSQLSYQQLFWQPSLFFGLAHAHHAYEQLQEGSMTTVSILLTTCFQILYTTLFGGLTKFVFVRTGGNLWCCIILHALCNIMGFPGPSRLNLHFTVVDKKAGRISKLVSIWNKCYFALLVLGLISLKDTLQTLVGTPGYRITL
HIV Env fusion: inhibitors of HIV Env-mediated cell fusion | HeLa-JRFL Env/CEM21 cell fusion, luciferase | inhibition, % at 12.3 µM | 1.1% of 360,000 active | AID 651610;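 active means mean replicate inhibition score of at least 50 and every replicate individually at or above 50; inconclusive means only one of the two criteria met; inactive means mean below 50 and not all replicates reaching 50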;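 further: 0% = plate neutral controls and 100% = maraviroc near 300 nM; one replicate is shown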
CSC inhib: cancer stem cell inhibition. cancer stem cell-like cells viability, luminescence. 1.1% of 300,000 active. inhibition, % at 7.5 µM;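 active means mean at 75% or more and at least half the replicates too; inconclusive means mean and replicates disagree; tested in HMLE shEcad cells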;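 further: 0% = median of negative and 100% = median of positive control wells; the first replicate is given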
eIF4H inh retest: further read-out of eIF4H inh, marked with its call; inhibition, %; compound at 20 µM; confirmation average;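 mean of two retest wells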
PABP FP inh retest: also measured in PABP FP inh; calls as there; inhibition, %; compound at 20 µM; confirmation repeats;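 mean of two retest wells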
MT1-MMP act inh RFP: recorded beside MT1-MMP act inh, whose call it bears; RFP signal change, %; measured here: RFP expression control read;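 0 = vehicle wells; hits needed this value within 50% of zero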
* = called active by the depositor; i = inactive; ? = inconclusive; · = no result given; & = joins results of further samples; [ ] = dose if it differs, or a comment. These rows are one share of the data; rates above refer to the full screens.

SMILES	UUG fidelity	MT1-MMP act inh	MT1-MMP act inh RFP	eIF4H inh	PABP FP inh	Rce1 inhib	HIV Env fusion	CSC inhib	others
COc1ccc(NC(=O)/C=C/C(=O)O)c([N+](=O)[O-])c1	-29.4	1.4	1.1	3.0	5.4	·	-13.1	7.7
O=C(O)CSc1nnc(Cc2ccccc2)n1-c1ccccc1	-15.2	1.9	0.8	4.4	4.0	i	33.3	15.9
O=C(CNS(=O)(=O)c1cccc(Cl)c1)Nc1ccc(-c2nc3ccccc3s2)cc1	·	6.1	-1.3	5.2	8.4	i	-98.0	11.5
COCCn1c(SCC(=O)Nc2cccc(OC)c2)nnc1-c1ccccc1	-0.5	6.2	3.3	8.3	3.9	i	·	-4.4
Cc1ccccc1OCCNC(=O)CSc1ccc(C(F)(F)F)cc1[N+](=O)[O-]	·	4.5	4.6	-4.9	-3.0	i	7.8	23.8
Cn1cc(CN2CCC(n3nccc3NC(=O)c3ccccc3Cl)CC2)c2ccccc21	-11.3	-1.6	-0.9	-3.0	4.5	i	-4.1	-3.9
CCCOc1ccc2oc(=O)c3c(c2c1)CCCN3C(=O)CN1CCN(C(=O)c2ccco2)CC1	·	·	·	-2.8	-0.3	i	·	-7.7
CC(C)N(Cc1nc(-c2ccccc2)no1)C(=O)c1ccc([N+](=O)[O-])cc1	·	1.5	1.3	-4.3	-11.1	i	4.2	1.6
Cc1ccc(NC(=O)c2nc[nH]c2C(=O)N2CCOCC2)c(C(=O)c2ccccc2)c1	3.4	0.0	1.5	7.9	7.1	i	10.6	2.2
COc1ccc2[nH]c3c(=O)n4c(nc3c2c1)SCC4	·	6.3	1.0	-3.2	-15.1	i	-16.0	-19.0
CCc1ccc(C(C)NC(=O)C2CCCC2)cc1 (stereo not drawn)	2.7	3.1	-2.6	-0.1	-3.9	i	13.2	7.6
Nc1nnc(SCC(=O)OCc2ccc(Cl)c(Cl)c2)s1	-15.4	4.8	1.2	-1.0	-9.4	i	-6.2	·
Cc1cc(-c2cc(N)n(-c3ccccc3)n2)c(C)n1C1CCCC1	-14.6	-3.5	-4.8	0.7	1.0	i	·	2.2
COc1ccc2sc(-c3ccc(N(C)C)cc3)c(C#CCCO)c2c1	-13.0	-4.6	2.8	·	·	·	-8.2	122.4*
O=C(O)c1ccccc1S(=O)(=O)Cc1ccccc1	-13.1	1.1	2.1	1.5	-0.1	i	·	-3.5
Cc1cccc(C)c1NC(=O)CSc1nnnn1C	-12.8	5.0	1.7	-5.0	1.1	i	·	-6.2
CS(=O)(=O)NCCCNc1c(Cl)cccc1[N+](=O)[O-]	-8.2	2.8	1.8	2.5	2.5	i	-178.7	0.0
O=C/C=C/c1c(-c2ccccc2)cc2oc3ccccc3cc1-2	-14.3	-17.6	5.0	6.7	15.1	i	-0.8	98.5*
CC(C)CCNC(=O)c1ccc2c(c1)N(C)C(=O)c1ccccc1S2	-19.3	-0.6	-1.4	-2.2	-2.1	i	3.6	-5.1
Cc1cc(=O)[nH]c(NCc2ccc(Cl)cc2)n1	-6.6	0.0	-1.4	-6.4	8.9	i	0.7	12.2
COc1cc(/C=C/C(=O)OCC(=O)NCCc2ccc(F)cc2)ccc1OC(F)F	-14.4	-2.4	-2.1	·	·	·	-17.0	-15.1
COc1ccc(F)cc1C(=O)C1CCCN(Cc2cnc(N3CCCC3)s2)C1 (stereo not drawn)	-6.8	·	·	-6.6	7.2	i	-28.3	-11.5
O=C(c1nn(-c2ccccc2)c(=O)c2ccccc12)N1CCN(c2ccccn2)CC1	-10.0	2.2	-1.1	-4.4	1.0	i	-52.9	-9.1
COc1ccc(S(=O)(=O)Cc2ccc(C(=O)NC3CCCCCC3)o2)cc1	-11.7	4.3	3.9	-10.7	7.6	i	20.3	-2.6
Cc1cc(C)c(S(=O)(=O)N2CCN(C3CC(=O)N(c4ccccc4Cl)C3=O)CC2)c(C)c1 (stereo not drawn)	2.8	8.3	-3.5	·	·	·	2.4	-4.5
O=C(O)C(Cc1c[nH]c2ccccc12)NS(=O)(=O)c1ccccc1 (stereo not drawn)	·	-0.4	2.6	0.6	8.8	i	-4.7	-31.8
COC(=O)C[C@H]1c2cc(C(F)(F)F)ccc2S(=O)(=O)N1Cc1ccc(OC)cc1	8.6	2.8	-6.0	·	·	i	-0.5	-5.4
Cc1cc(C(=O)COC(=O)c2n[nH]c(=O)c3ccccc23)c(C)n1C(C)C	-19.0	5.1	0.1	·	·	·	-36.1	29.3
O=C(Nc1ccnn1C1CCN(CCCC2CCCC2)CC1)c1ccccc1	-12.5	3.7	2.6	3.3	3.9	i	6.8	19.1
COC(=O)c1sc(C(F)(F)F)c(-c2ccccc2)c1S(=O)(=O)N(C)C	·	-2.1	-0.8	-12.0	10.6	i	-9.3	-8.7
COc1ccc(Cc2nnc(SCC(=O)Nc3ccc(C)c(Cl)c3)[nH]c2=O)cc1	-16.1	4.8	-2.1	·	·	i	1.1	16.4
O=C(CSc1nc(=O)n(CCCN2CCOCC2)c2c1CCCC2)Nc1cccc(F)c1	-1.5	-0.8	2.5	·	·	i	-94.7	-7.1
CC(=O)Nc1ccc(C(=O)OCc2ccc(F)cc2)cc1	·	-0.1	-4.4	?	?	i	2.4	6.6
CN(C)C(=O)C12CCC(C)(c3nc4ccccc4nc31)C2(C)C (stereo not drawn)	-0.1	0.9	3.6	-10.0	-13.3	i	-16.7	·
COc1cccc(CN(CC(=O)NC2CCCC2)C(=O)CCC(=O)Nc2cc(C)on2)c1	-2.5	2.7	0.7	-1.8	-12.4	·	·	-2.6
CC(=O)c1cc(-c2ccccc2)n(CCC(=O)NC2CCC(C)CC2)c1C (stereo not drawn)	-16.5	-3.5	-5.0	-6.5	2.5	i	11.6	-9.7
CN(c1cccc(Cl)c1)S(=O)(=O)c1cccc(C(=O)NC2=NCCS2)c1	-11.7	6.3	-0.5	1.0	2.7	i	·	8.4
CC(NC(=O)c1cc(S(=O)(=O)N(C)C)ccc1N1CCCC1)C1CC2CCC1C2 (stereo not drawn)	·	1.3	-1.8	-0.3	-2.9	i	71.5*	-5.2
O=C(/C=C/c1ccccc1Cl)NCCCn1ccnc1	-13.6	0.1	4.3	-13.0	31.8	i	-7.0	-5.8
Cc1ccc(C(=O)NCCc2nc3ccccc3[nH]2)cc1[N+](=O)[O-]	·	-4.3	-0.1	3.9	-4.5	i	-52.7	-8.3
COc1ccccc1N1CCN(S(=O)(=O)CCNC(=O)CCCc2ccccc2)CC1	3.6	5.9	-3.8	·	·	i	-4.4	-7.5
COc1ccc(OC)c(N)c1	-12.0	36.9*	35.3*	40.3	79.2	i	27.6	-2.5	eIF4H inh retest=48.2;PABP FP inh retest=32.6
Cc1ccc(-c2nnc(N3CCCCCC3)c3ccccc23)cc1	·	-0.9	-10.1	-13.5	5.4	i	1.7	44.9
CC(C)(C)[C@@H]1C=C(C(=O)NCc2ccccc2)O[C@H](OCc2ccc(CO)cc2)C1	-6.7&-11.3	4.1	-3.5	10.8	1.3	i	19.2[16.7 µM]	12.5
CCOc1[nH]n(-c2ccccc2)c(=O)c1C=Nc1ccc(F)cc1F	-5.0	4.4	3.3	-3.4	8.6	i	-2.5	-8.3
CCc1ccc(Nc2n[n+](-c3ccccc3)c(-c3ccc(SC)cc3)s2)cc1	-9.7	3.8	-17.6	4.7	12.5	i	-24.7	32.4
CC(C)(C)c1ccc(/C=C2\CCn3c2nc2cc(C(=O)O)ccc2c3=O)cc1	-15.8	11.9	-2.8	2.8	16.2	i	·	-8.3
CC(C)Cc1nc2ccc(N)cc2[nH]1	-26.3	2.7	4.7	-0.8	12.8	i	5.3	2.4
CC(=O)Nc1cccc(-c2ccnc3c2CC(C)(C(=O)NCc2cccc(Cl)c2)O3)c1 (stereo not drawn)	-7.7	2.4	-3.7	·	·	·	-39.7	·
Cc1cccc(C)c1NC(=O)CN(C1CCCCC1)S(C)(=O)=O	9.1	-2.2	3.2	0.6	2.8	i	-6.3	0.7
NC(=O)c1c(NC(=O)COC(=O)c2ccc(O)c(Cl)c2)sc2c1CCCC2	-2.2	-4.0	-0.6	·	·	·	·	-8.9
CCN(CCn1cccn1)C(=O)CC1C(=O)NCCN1Cc1cc(OC)cc(OC)c1 (stereo not drawn)	·	0.4	5.2	-7.5	-7.7	i	3.2	-6.7
CC(=O)c1sc(NC(=O)Cc2c(F)cccc2Cl)nc1C	·	-2.4	0.9	-0.1	-0.9	i	-9.8	-11.5
O=C1CSC(c2ccncc2)N1Cc1ccco1 (stereo not drawn)	-4.2	-2.5	1.6	10.7	2.2	i	35.1	-10.6
CCOc1ccc(CN2CCN(Cc3nc(C(C)C)cs3)CC2CCO)cc1 (stereo not drawn)	·	·	·	-8.9	-0.6	i	-14.7	-1.9
O=c1cc(-c2ccccc2)c2c([nH]1)CCCC2	-16.5	-5.1	2.8	4.2	7.2	i	·	·
COc1ccc(CCNC(=O)COc2nsnc2N2CCOCC2)cc1OC	-9.0	0.3	-2.3	0.2	1.6	i	-13.3	2.7
C[C@@H]1CN([C@@H](C)CO)C(=O)c2cc(C3=CCCCC3)cnc2O[C@H]1CN(C)C(=O)Nc1cccc(F)c1	-2.5&-1.7&4.1	1.5	5.9	·	·	·	1.5&-23.4[16.7 µM]	·
CCCNS(=O)(=O)c1ccc(CCC(=O)Nc2cc(Cl)ccc2Oc2ccccc2)cc1	·	-9.3	-27.5	0.1	0.0	i	·	·
CCOc1cc(C)c(C(C)C)cc1S(=O)(=O)n1cnc(C)c1	·	-3.1	-8.8	0.4	-1.2	i	-57.0	-2.0
Additional results:
SMILES	UUG fidelity	MT1-MMP act inh	MT1-MMP act inh RFP	eIF4H inh	PABP FP inh	Rce1 inhib	HIV Env fusion	CSC inhib	others
CCOc1cc(N2CCOCC2)c(OCC)cc1NC(=O)C1CCCC1	-8.2	1.3	1.7	-5.4	9.1	i	9.2	·
CCCN1CCc2c(sc(NC(=O)c3ccc(S(=O)(=O)N(C)c4ccccc4)cc3)c2C(N)=O)C1	-0.8	-35.0	-4.6	8.6	-13.0	i	·	9.7
N#Cc1ccc(/C=N/NC(=S)Nc2ccc(S(=O)(=O)N3CCOCC3)cc2)cc1	-13.2	8.3	5.4	9.9	4.6	i	9.1	-10.3
CCCCCn1nc(-c2ccccc2)c2nc3ccccc3nc21	-17.2	-134.3	3.4	?	?	i	-8.2	-13.7
CCOC(=O)Cc1cc(-c2ccc(F)cc2)nc2ccc3ccccc3c12	-9.2	-2.8	-2.1	-3.9	-4.1	i	·	-8.8
CC(CO)NS(=O)(=O)c1ccc(Br)cc1F (stereo not drawn)	-7.5	0.0	5.6	·	·	·	0.7	·
N#CC1(NC(=O)COC(=O)c2cc(=O)[nH]c3ccccc23)CCCCC1	-3.0	-3.6	2.0	·	·	i	-27.7	·
O=C(CCC1CCN(C(=O)c2cncs2)CC1)Nc1ccccc1	-9.1	0.6	2.4	-7.4	0.8	i	9.0	-2.5
COCc1cc(C)n(CC(=O)Nc2cc(C)cc(C)c2)c(=O)c1C#N	-9.6	-2.1	0.7	-5.0	-4.3	i	17.1	6.4

Bioassay records from PubChem.
